YopH inh = blocks Yersinia enterocolitica YopH tyrosine phosphatase | inhibition, %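 (about 10 µM by stock and volumes)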 | 140,000 tested, 0.16% active | AID 898 | fluorescence Ex485/Em525;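 active = inhibition of 50% or more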;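 also: controls were vehicle for no effect and minimum signal wells for full effect; inactives centre near -20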
Arbovirus inh = blocks arbovirus infection; inhibition, % at 10 µM; 200,000 tested, 0.37% active; arbovirus infection cell-based antiviral screen;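 active = inhibition from about 30%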;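 also: bluetongue infection of BSR cells; cell survival read as ATP light after 72 h; 0% = infected wells without compound and 100% = uninfected wells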
RecA splice inh = inhibitors of M. tuberculosis RecA intein splicing; P9WHJ3; cell-free RecA intein splicing, fluorescence; 290,000 tested, 0.75% active; inhibition, %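 (about 9 µM by stock and volumes)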; AID 2221; in the data active = inhibition above about 30%; inconclusive = no clear call, values can overlap the other calls;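 also: 0% = vehicle wells and 100% = reference inhibitor control wells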
Target sequence (P9WHJ3 whole entry, looked up, canonical isoform): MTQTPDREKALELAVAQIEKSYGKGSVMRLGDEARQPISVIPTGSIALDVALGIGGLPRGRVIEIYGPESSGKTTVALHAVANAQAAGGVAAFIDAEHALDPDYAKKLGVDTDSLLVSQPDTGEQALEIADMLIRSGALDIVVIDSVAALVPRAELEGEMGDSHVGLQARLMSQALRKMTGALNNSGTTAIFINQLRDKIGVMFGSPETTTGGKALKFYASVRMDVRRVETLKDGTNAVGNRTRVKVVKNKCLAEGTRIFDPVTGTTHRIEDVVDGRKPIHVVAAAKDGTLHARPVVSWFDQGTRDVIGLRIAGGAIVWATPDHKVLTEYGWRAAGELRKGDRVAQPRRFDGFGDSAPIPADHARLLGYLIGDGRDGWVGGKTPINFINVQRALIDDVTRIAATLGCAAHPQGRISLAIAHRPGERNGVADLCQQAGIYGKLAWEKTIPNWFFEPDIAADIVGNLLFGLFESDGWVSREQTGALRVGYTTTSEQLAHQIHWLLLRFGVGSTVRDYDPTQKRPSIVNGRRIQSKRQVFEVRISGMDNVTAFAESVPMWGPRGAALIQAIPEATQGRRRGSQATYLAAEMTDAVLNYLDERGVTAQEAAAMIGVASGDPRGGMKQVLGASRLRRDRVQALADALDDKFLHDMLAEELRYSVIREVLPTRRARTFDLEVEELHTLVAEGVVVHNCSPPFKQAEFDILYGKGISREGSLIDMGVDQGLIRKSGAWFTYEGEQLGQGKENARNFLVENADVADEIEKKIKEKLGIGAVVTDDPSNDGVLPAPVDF
Mtb growth = M. tuberculosis H37Rv growth inhibitors, H37Rv strain (AID 1626) | M. tuberculosis H37Rv growth inhibition; higher % means a stronger effect | one-dose inhibition, % at 10 µM; IC50 in µM for titrated hits | 220,000 tested, 0.95% active;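 active = confirmed in a dose series; inconclusive = inhibition above 80% but not taken into the dose series; inactive = below 80% or under 30% at every dose of the series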;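 also: bacteria incubated seven days before Alamar blue readout; 0% = bacteria only wells and 100% = bacteria with antibiotic wells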
Mtb bLac sens = beta-lactam sensitization of Mtb H37Rv; 330,000 tested, 0.27% active; M. tuberculosis H37Rv growth with meropenem, percent inhibition; hits of this screen are not shown here; AID 434955; inhibition, % at 25 µM;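 active = about 74% or more and at least 40 points above the plate without the antibiotic, then above 30% in a dose series; inconclusive = first-round hits that could not be retested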;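 also: growth measured after seven days incubation then overnight dye step; 0% = bacteria only wells and 100% = bacteria with antibiotic; twin plates without the antibiotic show which effects depend on it; some results filed as inactive read as strong as hits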
Arbovirus inh repeat = recorded beside Arbovirus inh, whose call it bears; inhibition, %; measured here: 10K subset replicate screen; many hits read low in the repeat;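 first of two repeat runs on a subset; 0% = infected and 100% = uninfected wells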
An asterisk follows results filed as active; ? = inconclusive; . = not tested or not shown. A portion of the library. The share of hits here may be higher or lower than overall.

SMILES	YopH inh	Arbovirus inh	RecA splice inh	Mtb growth	Mtb bLac sens	others
O=C(CCNS(=O)(=O)c1cccc2nsnc12)N1CC(=O)N(CCc2ccccc2)C(=O)C1	-45	5	1.3	-11%	0
CCn1nc(/C=C/c2ccccc2)nc2c(=O)n(C)c(=O)nc1-2	.	-28	79*	8%	.
COc1nccnc1NS(=O)(=O)c1ccc(NC(=S)NC(=O)c2cccc(F)c2)cc1	-35	-13	-3.5	4%	2
O=C1C2C3CCC(O3)C2C(=O)N1c1cccc(F)c1 (centres undefined)	.	.	1.4	.	-7
O=[As](O)(O)c1ccc(N=Nc2ccc(O)cc2)cc1	.	.	5.5	-8%	0
CCn1c(=O)cc(SCC(=O)NCCC2=CCCCC2)c2ccccc21	-17	2	3.6	1%	1
O=c1c2ccccc2nc2n1CCCN2	.	0	0.6	-4%	0
Nc1ccccc1Sc1cc(Cl)nnc1Cl	.	.	-1.6	-1%	4
O=C(NCCN1C(=O)S/C(=C\c2ccc(Cl)c([N+](=O)[O-])c2)C1=O)C1=COCCO1	.	.	1.7	.	20
CC(C)C(C(=O)NC1=NCCS1)c1ccc(Cl)cc1 (centres undefined)	.	25	0.7	8%	28
Cc1ccnc(NC(=O)COC(=O)c2ccc(F)cc2F)n1	.	.	0.8	-4%	3
COc1ccc(C(C(=O)NC2CCCCC2)N(C(=O)c2ccccn2)c2cccnc2)cc1 (centres undefined)	.	2	-2.4	-7%	2
COc1ccc(C(c2nnnn2Cc2cccs2)N2CCN(c3ccccc3)CC2)cc1OC (centres undefined)	-36	6	-1.9	12%	-1
COc1cc2c(cc1OC)CN(C(=O)c1cc(=O)c3ccccc3o1)CC2	13	-20	3.3	-4%	-6
C=CCOc1c(Br)cc(CNn2nnnc2N)cc1OC	-38	2	-2.1	10%	-12
O=C(Cn1nnc2ccccc2c1=O)Nc1ccc(S(=O)(=O)N2CCOCC2)cc1	.	-1	1.1	-5%	3
CCN1CCN(C(=O)CN(c2ccc(C)cc2)S(C)(=O)=O)CC1	-5	4	-1.2	4%	4
Cc1cccc(COc2coc(CN3CCN(C(=O)c4ccco4)CC3)cc2=O)c1	.	.	0.3	.	4
CC(C)[C@H](NC(=O)OCc1ccccc1)C(=O)OCc1ccccc1	.	.	7.5	.	4
COc1ccc(C2c3ccc(O)cc3Oc3ncn4nc(-c5ccncc5)nc4c32)cc1OC (centres undefined)	.	.	-1.5	-9%	-1
CCc1ccc(NC(=O)C(C)OC(=O)c2ccc(N3CCCC3)c([N+](=O)[O-])c2)cc1 (centres undefined)	-28	-1	0.8	7%	2
Cc1ccc(C)c(NC(=O)CN2C(=O)CNC2=O)c1	0	-10	-0.7	2%	8
CN(C)c1nc(OCCNC(=O)COc2ccc(Cl)cc2Cl)nc(N2CCCCC2)n1	26	-8	0.9	6%	-5
Cc1ccc(S(=O)(=O)CCC(=O)NCCN2C(=O)S/C(=C\c3ccccc3)C2=O)cc1	0	-3	1.4	4%	2
O=C(O)c1cccc(S(=O)(=O)N2CCSCC2)c1	-38	7	-3.0	-4%	5
CCN(CC)C(=O)CSc1nc(-c2ccco2)cc(C(F)(F)F)c1C#N	-25	3	-2.5	-16%	-10
NC(=O)C1CCN(C(=O)CN(c2ccc3c(c2)OCCO3)S(=O)(=O)c2ccccc2)CC1	.	.	1.1	.	-3
Cc1nc2ccc(S(=O)(=O)NCC(=O)N3CCN(c4ccccc4)CC3)cc2s1	10	5	4.6	-8%	2
CC(C)(C)N(NC(=O)c1ccccc1)C(=O)c1ccccc1	-25	1	0.2	3%	2
CCn1c(SCc2nc3cc(OC)c(OC)cc3c(=O)[nH]2)nc2ccccc21	.	-2	0.4	2%	-4
Cc1cccc2cc(CNC3CCCC3)c(Cl)nc12	.	2	-8.2	2%	-4
CS(=O)(=O)Cc1ccc(C(=O)N(CCc2ccccc2)Cc2ccccc2)cc1	.	.	4.8	.	7
O=C(CSc1nnc(CNC(=O)c2ccccc2)o1)NCc1ccco1	.	.	-0.7	.	-1
Fc1ccc(-c2nc3ccncc3[nH]2)cc1	-8	2	1.4	-4%	-2
COc1ccc2c(c1)C1(Nc3ccccc3C(=O)N1c1ccccc1)C(=O)N2 (centres undefined)	-44	-4	1.6	-1%	1
O=C(CN1CCOCC1)Nc1nc(-c2ccc3c(c2)CCN3S(=O)(=O)c2ccccc2)cs1	-46	-8	3.9	-3%	89
CCC(=O)Nc1ccc(-n2nnnc2SCC(=O)NNC(=O)c2ccco2)cc1	.	.	-6.2	-8%	-15
COC(=O)c1sccc1NC(=O)/C=C/c1ccc(Cl)cc1Cl	-9	-19	-4.6	1%	1
Cn1cnnc1SCC(=O)Nc1cccc(S(=O)(=O)N2CCCCCC2)c1	-13	-4	-0.8	2%	-9
C/C=C/C=C/C(=O)[C@@H]1[C@@H]([C@]2(C)OC(=O)C(C)=C2O)[C@H]2/C(=C(O)/C=C/C=C/C)C(=O)[C@]1(C)C(=O)C2(C)O (some centres undefined)	.	.	-3.2	16%	-6

Of the compounds above, these contain a furan ring, fused or not:
SMILES	YopH inh	Arbovirus inh	RecA splice inh	Mtb growth	Mtb bLac sens	others
Cc1cccc(COc2coc(CN3CCN(C(=O)c4ccco4)CC3)cc2=O)c1	.	.	0.3	.	4
CCN(CC)C(=O)CSc1nc(-c2ccco2)cc(C(F)(F)F)c1C#N	-25	3	-2.5	-16%	-10
O=C(CSc1nnc(CNC(=O)c2ccccc2)o1)NCc1ccco1	.	.	-0.7	.	-1
CCC(=O)Nc1ccc(-n2nnnc2SCC(=O)NNC(=O)c2ccco2)cc1	.	.	-6.2	-8%	-15

Further records
SMILES	YopH inh	Arbovirus inh	RecA splice inh	Mtb growth	Mtb bLac sens	others
CC(C)n1nnnc1SCC(=O)N1CCOCC1	-36	1	0.1	-8%	-5
COc1cc(/C=N/NC(=O)c2cccc(S(=O)(=O)N3CCOCC3)c2)cc(OC)c1O	.	-4	-3.5	-7%	-2
Cc1c(Cl)cccc1NC(=O)c1ncn[nH]1	.	.	-4.5	1%	7
Cn1cnc2c1c(=O)[nH]c(=O)n2Cc1ccccc1	.	.	-4.1	.	1
CCCCCCn1c(-c2ccco2)nc2oc3cc(OC)ccc3c(=O)c2c1=O	-6	-13	2.6	-11%	13
COc1ccccc1-n1c(SC)nc(O)cc1=O	-6	5	-3.2	2%	4	Arbovirus inh repeat=0
COc1ccc(N2CCN(Cc3nc(Cc4cccc(F)c4)no3)C(C)C2)cc1 (centres undefined)	.	3	2.3	6%	7
CC(C)(C)C1CCc2c(C(=O)NNC(=O)/C=C/C(=O)O)csc2C1 (centres undefined)	-24	-9	9.4	2%	7
O=C(O)CCCC(=O)Nc1ccn(-c2ccccc2)n1	-23	7	0.8	-10%	7
CCOC(=O)N1CCN(C(=O)c2cc3c(=O)n4cccc(C)c4nc3s2)CC1	.	.	-7.8	.	7
COC(=O)C/C(C)=N/Nc1ccc(S(=O)(=O)N2CCCC2)cc1[N+](=O)[O-]	-17	13	-0.5	0%	4
CC(C)(C)c1ccc(-n2ncc3c2CCCC3NC(=O)C2=NNC(=O)CC2)cc1 (centres undefined)	.	.	2.0	.	?
O=C(Cn1c(=O)n(-c2cccc(Cl)c2)c(=O)n1CC(=O)N1CCCCC1)N1CCCCC1	-6	2	0.4	-4%	-1
CC1CCN(C(=O)C2CCC(CNc3c(N4CCCCC4)c(=O)c3=O)CC2)CC1 (centres undefined)	.	.	0.7	-19%	8
Cc1ccc(S(=O)(=O)N(CC(O)CN2C(=O)NC(C)(C)C2=O)c2cccc(C)c2)cc1 (centres undefined)	.	.	2.4	0%	-7
CCOC(=O)c1c(C)nc2c(C)cccn12	-13	-10	-1.9	-5%	-20
N/C(CC(=O)Nc1ccc(F)c(Cl)c1)=N\OC(=O)c1cccs1	.	.	3.0	-4%	-10
COc1ccc(NC(=O)COC(=O)/C=C/c2cnc3ccccc3n2)cc1	.	-2	-22	-2%	3
CC1CCC/C(=N\NC(=S)NCc2ccccc2)C1 (centres undefined)	-25	-5	-1.5	6%	100
CCS(=O)(=O)Nc1cccc(C(=O)O)c1	.	.	-1.0	5%	-2

By substructure, the compounds so far with an NH in an aromatic ring.
SMILES	YopH inh	Arbovirus inh	RecA splice inh	Mtb growth	Mtb bLac sens	others
CCn1c(SCc2nc3cc(OC)c(OC)cc3c(=O)[nH]2)nc2ccccc21	.	-2	0.4	2%	-4
Fc1ccc(-c2nc3ccncc3[nH]2)cc1	-8	2	1.4	-4%	-2
Cc1c(Cl)cccc1NC(=O)c1ncn[nH]1	.	.	-4.5	1%	7
Cn1cnc2c1c(=O)[nH]c(=O)n2Cc1ccccc1	.	.	-4.1	.	1

(list continues)
SMILES	YopH inh	Arbovirus inh	RecA splice inh	Mtb growth	Mtb bLac sens	others
CCCOc1ccc(C(=O)NC(C)C(=O)O)cc1 (centres undefined)	-15	1	-3.5	-1%	93
Cc1ccc(NC(=O)c2cc(-c3ccccc3)n(CCCN3CCOCC3)c2C)cc1	.	.	.	-5%	5
Cc1cc(-c2ccccc2)nc(N2CCC(C(=O)NC(C)C)CC2)n1	-44	-7	-5.3	-13%	28
CCS(=O)(=O)c1ccc(O)c(NC(=O)Nc2ccccc2OC)c1	.	.	-0.5	0%	18
O=C(Nc1ccc2c(c1)OCO2)c1cnccn1	.	-6	5.6	0%	0
COc1ccc(O)c(C(=O)c2cc(C#N)c(=O)n(-c3ccc(Cl)cc3)c2)c1	.	.	-12	-7%	-8
COCCN1C(=O)NC(=O)/C(=C\c2ccc(F)cc2)C1=O	.	0	0.4	3%	3
CCNC(=O)c1c(NC(C)=O)sc2c1CCCC2	-151	-1	0.1	-2%	-4
OC(CNCc1ccc(Cl)cc1)C(F)(F)F (centres undefined)	.	4	-0.7	0%	0
CC1CCN(S(=O)(=O)c2ccc3c(c2)c(=O)c(C(=O)NCc2ccco2)cn3C)CC1	-23	4	1.6	-2%	-11
CCc1cccc(C)c1NC(=O)C1=C(C(=O)O)CCCC1	-32	-3	1.1	-6%	-14
O=C(O)c1cc(N/N=C/C=C/c2ccccc2)ccc1Cl	.	13	-46	-3%	-3
O=C(COC(=O)c1ncc(Cl)c(Cl)c1Cl)NC1CCS(=O)(=O)C1 (centres undefined)	.	.	1.7	.	-4
O=C(Nc1ccccc1C(=O)NCc1ccco1)c1ccco1	-33	0	7.8	7%	0
COc1ccccc1NC(=S)Nc1cccc2cnccc12	-15	-5	-5.1	3%	-1
Cc1ccccc1OCCC(=O)Nc1ccc2c(C)cc(=O)oc2c1	.	.	-1.5	.	-3
CSc1ccccc1NC(=O)CSc1nnnn1-c1ccccc1SC	-2	0	3.1	0%	2
NC(=O)Cn1cc(/C=N\NS(=O)(=O)c2ccc(Cl)cc2)c2ccccc21	.	.	-5.9	.	-12
O=S(=O)(c1ccc(F)cc1)N1CN(Cc2ccco2)c2nc3ccccc3nc21	-23	-5	3.6	4%	-3
O=C(CSc1ncnc2ccccc12)Nc1ccc(N2CCOCC2)cc1	-47	-1	0.1	8%	.
COc1cc(/C=N/Nc2nc(C)cc(C)n2)ccc1OC(=O)c1ccco1	-13	2	-1.0	2%	2
O=C(COc1ccc(Br)cc1F)N1CCN(c2ncccn2)CC1	.	18	-0.3	2%	-7
CC1(/[N+]([O-])=C/c2ccccc2F)CCCCC1=O (centres undefined)	.	10	-5.7	4%	-1
CCC1C(=O)CC(c2ccccc2)NC1c1ccccc1 (centres undefined)	.	-6	2.6	1%	-1
COc1ccc(C(=O)NCCS(=O)(=O)NCc2cccnc2)cc1	.	.	-3.5	.	-1
S=C(NCCC(c1ccccc1)c1ccccc1)Nc1cccc(Cl)c1	-29	-33	12	11%	-5
C(=N\N1CCN(Cc2cccc3ccccc23)CC1)/c1cccnc1	-21	-21	4.1	4%	51
COc1ccccc1CC(=O)Nc1ccc(S(=O)(=O)N2CCOCC2)cc1	.	.	1.3	.	-2
Cc1ccc2nc3c(cc2c1)c(NC(=O)c1cccnc1)nn3C	-8	0	-50	-4%	11
CCOC(=O)/C(C(=O)Nc1ccccc1Cl)=C1/NC(C)(C)Cc2ccccc21	-35	-3	6.2	6%	6
O=C(CSc1nccn(-c2ccc(Br)cc2)c1=O)Nc1ccccc1F	.	.	-0.8	.	39
O=C(Nc1ccc(C(=O)O)cc1)/C(=C\c1ccc2c(c1)OCO2)NC(=O)c1ccccc1	.	6	0.1	-2%	-2
O=C(Nc1cccc2ccccc12)/C(=C\c1cccc([N+](=O)[O-])c1)NC(=O)c1cccs1	-21	-5	-1.6	-8%	3
CCOc1ccc(C(=O)Nc2cc(-c3nc4ccccc4[nH]3)ccc2Cl)cc1[N+](=O)[O-]	-42	-29	4.6	13%	0
CCOC(=O)N1CCN(C(=O)CSc2nnc(-c3cccs3)o2)CC1	-49	-3	0.6	?	97	Arbovirus inh repeat=2
CCOC(=O)C1(CCOc2ccccc2)CCN(Cc2ccc(O)c(OC)c2)CC1	.	.	4.7	.	2

Screening results from PubChem BioAssay.
